High-throughput results from PubChem.
Six1-Eya2 inh: qHTS Assay for Inhibitors of the Six1/Eya2 Interaction. Homeobox protein SIX1 (Homo sapiens) + Protein phosphatase EYA2 (Homo sapiens), …. AlphaScreen GST-Six1/His-Eya2 binding, biochemical; stronger effect = lower value; control for the full effect not named in the record. activity change, % (concentration not given with the values). 0.56% of 360,000 active. AID 651725, 2012; in the data active = activity change below about -65%; inconclusive = about -30% to -65%; inactive = above about -30%; also: % is scaled to controls: 0 for no effect and ±100 for the full control effect
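AlphaScreen with GST-Six1 and His-Eya2 (5X mix: 250 nM and 500 nM), glutathione donor and nickel acceptor beads; buffer 50 mM Tris pH 8.0, 300 mM NaCl, 1 mM TCEP; 1 h at 37 C in the dark.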
D2 ag: Beta-Arrestin HTS for Positive Allosteric Modulators of the Human D2 Dopamine Receptor: Agonists; DiscoveRx PathHunter D2 beta-arrestin, luminescence, 90 min; 100% = 57 uM dopamine signal; activation, % (test concentration not listed); 0.084% of 360,000 active; in the data active = activation above about 40%; inconclusive = about 15% to 40%; inactive = below about 15%; also: compound concentration not given in the record; the text of the record calls up to 30% inactive
Target sequence (P14416 whole entry, looked up): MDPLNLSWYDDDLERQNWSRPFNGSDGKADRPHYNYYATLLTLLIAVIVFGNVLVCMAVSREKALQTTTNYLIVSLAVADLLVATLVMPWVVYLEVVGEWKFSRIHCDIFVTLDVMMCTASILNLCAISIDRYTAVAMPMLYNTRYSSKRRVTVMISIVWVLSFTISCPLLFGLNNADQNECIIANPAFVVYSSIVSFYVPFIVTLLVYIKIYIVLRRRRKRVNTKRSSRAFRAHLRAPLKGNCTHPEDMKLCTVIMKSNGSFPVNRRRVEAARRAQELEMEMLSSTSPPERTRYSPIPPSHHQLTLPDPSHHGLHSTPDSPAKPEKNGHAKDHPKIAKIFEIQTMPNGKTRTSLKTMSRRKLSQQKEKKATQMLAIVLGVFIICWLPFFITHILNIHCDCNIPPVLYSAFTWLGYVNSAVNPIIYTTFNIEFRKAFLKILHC
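DiscoveRx PathHunter D2 beta-arrestin cells (2,100/well) attached overnight, then compound-stimulated 90 min at 37 C in HBSS/10 mM HEPES/0.1% Tween-20 buffer; beta-galactosidase complementation read by luminescence after 1 h at ambient temperature. Dopamine 57 uM final (EC100) as control.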
PINK1 modulator: A Quantitative High throughput Screen to Identify Chemical Modulators of PINK1 Expression; AID 624263, 2012; PINK1 immunofluorescence, high-content cytometry, 24 h; 0.2% of 410,000 active; Potency, µM (titrated, usually from 76.6 µM), without a hit: top-dose activation (PINK1 increase), usual class: activators; active = well fitted activation curve with a large enough effect; inconclusive = small, poorly fitted or top-dose-only effect; inactive = flat fitted curve, though single readings scatter; cell line not stated here;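 also: potency is read from the fitted curve at half-maximal effect; % of control where 0% means no effect; nearly all actives have a fitted effect of over 65% in size; a mitochondrial uncoupler was the plate control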
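PINK1 protein, normally rapidly degraded, was detected by immunofluorescence after 24 hour compound treatment of a stable cell line. Titration data (5 concentrations) came from laser-scanning cytometry, with CCCP-treated wells as controls.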
TRPML1 blocker: qHTS for Inhibitors of the Human Mucolipin Transient Receptor Potential 1 (TRPML1) | TRPML1-inducible cells, Ca2+ dye fluorescence, FDSS; stronger effect = lower value; inhibition of EC80 agonist-evoked calcium signal | activity change, negative = inhibition, % (concentration not given with the values) | 0.02% of 390,000 active | Mucolipin-1 (Homo sapiens), Q9GZU1; in the data active means activity change below about -50%; inconclusive means about -30% to -50%; inactive means above about -30%;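 also: stimulus is agonist 54-4 at its EC80 concentration; % is scaled to controls: 0 for no effect and ±100 for the full control effect; compound concentration not given in the record; the text of the record puts the active cut at -80%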
Target sequence (Q9GZU1 whole entry, looked up): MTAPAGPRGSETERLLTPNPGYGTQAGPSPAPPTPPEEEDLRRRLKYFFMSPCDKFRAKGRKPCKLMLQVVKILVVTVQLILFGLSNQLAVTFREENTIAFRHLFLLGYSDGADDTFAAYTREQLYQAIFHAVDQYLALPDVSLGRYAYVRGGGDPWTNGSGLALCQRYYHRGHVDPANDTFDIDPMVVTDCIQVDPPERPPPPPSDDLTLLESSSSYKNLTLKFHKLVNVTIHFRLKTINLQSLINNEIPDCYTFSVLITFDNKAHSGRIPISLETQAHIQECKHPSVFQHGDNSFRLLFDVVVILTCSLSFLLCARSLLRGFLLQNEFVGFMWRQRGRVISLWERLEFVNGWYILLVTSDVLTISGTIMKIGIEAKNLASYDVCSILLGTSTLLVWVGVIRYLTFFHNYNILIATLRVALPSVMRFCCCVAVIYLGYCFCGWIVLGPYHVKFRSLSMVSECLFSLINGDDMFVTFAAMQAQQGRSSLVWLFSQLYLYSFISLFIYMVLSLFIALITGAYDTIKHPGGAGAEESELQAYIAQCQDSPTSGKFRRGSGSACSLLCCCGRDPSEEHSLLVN
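Calcium fluorescence in TRPML1-DL cells induced overnight with Tet: a 110 s read after compound pin addition, then a 110 s antagonist read after challenge with 54-4 at 4 uM final (EC80).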
TRPML1 agonist: qHTS for Agonists of the Human Mucolipin Transient Receptor Potential 1 (TRPML1); Mucolipin-1 (Homo sapiens), Q9GZU1; TRPML1-expressing cells, Ca2+ dye fluorescence, FDSS; host cell line not named in the record; reference of the full effect not given here; activation, % (test concentration not listed); 0.12% of 410,000 active; in the data active = activation above about 50%; inconclusive = about 30% to 50%; inactive = below about 30%; also: 0% is about no effect; the text of the record puts the active cut at 80%
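Cells: TRPML1-DL, 1X Tet inducer, ~16 h at 37 degrees C/5% CO2. Dye: ABD Ca8 no-wash + quencher, 45-90 min RT. Read: 10 s baseline, compound add, 110 s agonist phase; 54-4 EC80 (4uM final), 110 s antagonist phase.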
CtBP-E1A blk: qHTS Assay for Inhibitors of the CtBP/E1A Interaction | AlphaScreen GST-E1A/His-CtBP binding, 1536-well; stronger effect = lower value; control for the full effect not named in the record | 0.49% of 340,000 active | activity change, % (concentration not given with the values) | CtBP / adenovirus E1A interaction (AlphaScreen) | AID 651724, 2012; in the data active means activity change below about -65%; inconclusive means about -30% to -65%; inactive means above about -30%; also: % is scaled to controls: 0 for no effect and ±100 for the full control effect
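In 5 uL wells, 23 nL compound meets equimolar GST-E1A and His-CtBP (5X stock 125 nM each) for 2 h, 37 °C. Beads (5X, 50 ug/mL) then 1 h, 37 °C, dark.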
Starred values were filed as active, the others as inactive; u = inconclusive; x = no result given; & = joins results of further samples; [ ] = another dose, or the depositor's remark.

Below each SMILES – Six1-Eya2 inh, D2 ag, PINK1 modulator, TRPML1 blocker, TRPML1 agonist, CtBP-E1A blk
> Cc1cccc(N2CC(C(=O)NCc3ccco3)CC2=O)c1C (stereo not given)
 : 2, -1.2, 0.9%, -2, -0.6, x
> CCc1ccccc1NC(=O)NCc1ccc2c(c1)CCN2C(=O)c1ccccc1
 : x, x, 0.2%, 2, 1.4, x
> Cc1ccc(-c2ccc(CN3C(C)C(=O)N(Cc4cn(Cc5ccco5)nn4)CCS3(=O)=O)cc2)c(C)c1 (stereo not given)
 : -11, -1.2, -0.5%, x, -0.4, -2
> CC(=O)Nc1cc2c(cc1Br)-c1ccccc1C2
 : -10, -5.5, -1.3%, 11, -0.1, 6
> CC(=O)CCS(=O)(=O)c1ccc(C)c(C)c1
 : 9, -3.3, -0.5%, -7, -0.5, 6
> Cn1cc(Cl)c(C(=O)Nc2nc3ccc(Cl)cc3s2)n1
 : 9, -0.1, 18%[38.3 µM], 1, 0.1, 8
> CN(C(=S)NC(=O)c1ccc(F)cc1)C1CCCCC1
 : -4, -3.6, 2.9%, -10, -0.3, -20
> Cc1cccc(N2CCN(C(=O)C3CCN(c4nnc(-n5cccc5)s4)CC3)CC2C)c1 (stereo not given)
 : -3, -1.1, 0.3%, -11, 1.4, -8
> COc1ccc(NC(=O)Cn2c(=O)nc(-c3ccccc3)c3ccccc32)cc1OC
 : x, x, -0.9%, 11, 2.3, x
> CS(=O)(=O)N1CCN(C(=O)Cc2ccccc2Cl)CC1
 : 10, 0.4, -2.6%, -8, 0.0, 6
> O=C(c1coc2ccccc2c1=O)N1CCN(c2cccc(C(F)(F)F)c2)CC1
 : -3, 1.1, -2.8%[38.3 µM], 20, 0.5, 16
> COc1ccc(/C=N/N2C(=O)CN(C(=O)c3ccccc3)C2c2ccc(OC)cc2)cc1 (stereo not given)
 : -4, -1.0, 0.8%, -13, 4.2, -5
> COc1cc(OC)c(N(C)S(=O)(=O)c2cccc(C(=O)OCC(=O)N3CCOCC3)c2)cc1Cl
 : -3, -3.9, 1.4%, -1, 0.6, 0
> CCC12CN3CC(CC)(CN(C1)C3c1ccc(OCc3ccccc3)cc1)C2=O (stereo not given)
 : x, x, 3.9%, 60, 0.0, x
> COc1cccc(CNC(=O)C(CC(C)C)NS(=O)(=O)c2ccc3c(c2)oc(=O)n3C)c1 (stereo not given)
 : x, x, 0.0%, 3, -0.5, x
> Cc1noc(C)c1C(=O)OC(C)C(=O)c1c[nH]c2ccccc12 (stereo not given)
 : -2, 1.0, 2.7%, 0, 0.5, 2
> Cn1cc(Br)c(C(=O)NC(=S)N2CCN(c3ccccn3)CC2)n1
 : -3, -3.8, -1.1%, -5, -0.9, -22
> CCN(c1ccccc1)S(=O)(=O)c1ccc(Cl)nc1
 : 5, -4.9, 0.5%, 6, -0.4, 12
> N=C(N)SCC1=CCS(=O)(=O)C1
 : 3, -6.4, 2.2%, -13, -0.5, x
> Cc1ccc2c(c1)c1ncn(CCC3=CCCCC3)c(=O)c1n2C
 : 0, 1.8, 1.4%, 18, 1.8, -1
> Cc1cc(C)n2nc(C(=O)OCC(=O)NCc3ccc(F)cc3)nc2n1
 : 0, 3.6, 1.4%, 5, -0.2, x
> COCc1nnc(NC(=O)c2c(-c3c(Cl)cccc3Cl)noc2C)s1
 : 9, 5.9, -0.2%, 5, 2.8, 9
> CC(C)(C)OC(=O)N1CCN(C(=O)c2nc[nH]c2C(=O)N2CCN(C(=O)OC(C)(C)C)CC2)CC1
 : 2, -0.1, -0.6%, 2, 0.0, 9
> CCS(=O)(=O)c1nc(S(=O)(=O)c2ccc(C)cc2)c(NCCN2CCOCC2)s1
 : 0, -2.8, -1.4%, -11, -1.0, 4
> Cc1cc(C)n(C(=O)CN2C(=O)c3ccccc3C2=O)n1
 : 5, -1.2, -4.1%[38.3 µM], 5, 0.1, 13
> COc1cc(OC)c(OC)cc1C=Cc1ccc2ccccc2n1
 : 0, 3.8, 4.4%, 0, -0.7, 1
> FC(F)(F)c1nnc2ccc(NCn3nnc4ccccc43)nn12
 : -15, -3.3, 3.1%, 53, 0.6, -6
> Cc1ccc(CS(=O)(=O)c2ccc(C(=O)N3CCN(c4ccccn4)CC3)cc2[N+](=O)[O-])cc1
 : 1, 0.6, -0.6%, 22, -0.4, -16
> COc1ccccc1C(=O)Nc1ccc(Cc2ccncc2)cc1
 : -5, -5.4, 1.8%, -4, -0.4, 12
> Nc1nc(SCC(=O)N2CCCc3ccccc32)n(-c2ccccc2)n1
 : 0, -0.6, 0.3%, -9, -1.0, 4
> COc1cccc(C(C)NC(=O)Cc2cccs2)c1 (stereo not given)
 : 10, 1.3, 0.6%, -10, -0.2, -2
> O=C(NCc1cccc(Cl)c1)c1c2c(nc3ccccc13)C(=O)N(C1CCCCC1)C2
 : x, x, 1.0%, -8, 0.4, x
> Cc1ccc(NC(=O)Cn2cc(S(=O)(=O)c3ccc(F)cc3)c(=O)c3cc4c(cc32)OCO4)cc1
 : x, x, 0.3%, 29, 0.8, x
> CCCCN(C)C(=O)c1sc2ncn(CC)c(=O)c2c1C
 : -1, -0.4, -0.9%, 15, -0.7, 5
> COc1cccc(N2CCN(c3ncnc4c3c(-c3ccccc3)cn4-c3cccc(C(F)(F)F)c3)CC2)c1
 : x, x, 1.2%, -18, 53*, x
> Cc1oc(-c2ccc(Cl)cc2)nc1CS(=O)CC(=O)NCc1ccccc1 (stereo not given)
 : -1, 0.6, -0.1%, 28, -0.3, 3
> Cc1nccn1CCC(=O)Nc1ccc(Cl)cc1
 : -19, -1.5, 3.7%, 11, -0.1, 3
> O=C1CCN(CCc2ccccc2)CCN1CCSc1ccccc1
 : -7, -0.6, 1.2%, 1, -0.7&0.1, -5
> Cc1ccc(NS(=O)(=O)c2cc(C(=O)N3CCN(CCO)CC3)ccc2C)cc1
 : 2, 1.0, 1.7%, 4, -0.7, 2
> Cc1cc(-c2csc(N)n2)c(C)n1Cc1ccco1
 : -15, 5.7, -1.7%, 2, 1.7, x
> COc1cccc(-c2c(NC(C)=O)n(C)c3ccccc3c2=O)c1
 : 4, -2.5, -1.5%, 2, 0.4, 2
> O=C(Cn1nnc(-c2ccccc2)n1)NCc1ccccc1
 : 4, 3.8, 0.5%[38.3 µM], 13, 0.0, 4
> Cc1ccc(NC(=O)CSCc2ccc(F)cc2)cc1
 : 6, 0.0, 1.1%, 2, 0.0, 1
> O=C(Nc1ccc(Cl)c(Cl)c1)N1CCC(N2CCCCC2)CC1
 : 0, -1.6, -0.6%, 22, -0.7, -3
> O=C(COc1ccc(S(=O)(=O)N2CCOCC2)cc1)NC1CC1
 : 1, -3.9, 2.0%, 30, 1.8, -3
> CC1=C(C(=O)N2CCOCC2)CC(CC(=O)NCc2cccs2)C(=O)N1Cc1ccc(C(C)(C)C)cc1 (stereo not given)
 : 4, -1.6, 3.3%, 13, -0.2, 5
> C=CCn1c(N)c(C(=O)NCCC2=CCCCC2)sc1=S
 : -22, -2.6, -6.9%[38.3 µM], 17, 1.7, u
> COc1ccc(Nc2nnc(-c3ccc(C)c(S(=O)(=O)N4CCN(C)CC4)c3)c3ccccc23)cc1
 : x, x, 2.1%, 8, -0.2, x
> Cc1nc(-c2ccc(S(=O)(=O)Oc3ccccc3Cl)s2)cs1
 : 13, 13, 9.7%, -15, 4.6, -1
> O=C(Nc1cccnc1)c1ccc(Cl)c(Cl)c1
 : -3, 0.8, 0.0%, -15, -0.3, x
> COc1ccc(N2C(=O)C3C(C2=O)C2C=CC3C23CC3)c([N+](=O)[O-])c1 (stereo not given)
 : 2, 0.6, -1.4%, -6, -0.1, 5
> CN(C)C(=O)CSc1nnc(NC(=O)CCc2ccccc2)s1
 : 10, -1.9, -0.5%, -10, 0.3, 25
> Cn1c(Cn2c(=O)sc3ccccc32)nnc1SCC(=O)N1CCCc2ccccc21
 : -5, 0.0, -2.6%, -4, 3.6, 5
> Cc1ccc(NC(=O)C2CCN(S(=O)(=O)c3c(C)noc3C)CC2)cc1C
 : 3, 5.4, 0.3%&1.0%, 16&-10, 1.8&-1.5, 0
> Cc1nnc(SCC(=O)NC2CC2)n1-c1ccccc1
 : 3, -0.7, -0.4%, 18, 0.8, -1
> O=C(Nc1nc(-c2ccccn2)cs1)c1ccc(-c2ccccc2F)o1
 : u, 9.3, -2.0%, 0, -0.4, -70*
> N#Cc1cc(C(=O)c2ccccc2OCC(=O)Nc2ccccc2Cl)cn(C2CCCCC2)c1=O
 : 2, -0.5, -0.2%, -3, -0.4, -2
> CCn1c(CNc2ccc(F)cc2)nnc1SCC(=O)Nc1ccccc1OC
 : -2, -1.0, -1.0%, 8, -1.0, 6
> Cc1ccccc1-c1cc(=O)c2c(O)cccc2o1
 : 8, -1.0, -0.6%, -9, -0.6, 3
> Cn1c(CNC(=O)CCNC(=O)c2cccc(Cl)c2)cc(=O)n(C)c1=O
 : -1, -2.2, -0.1%, 19, -0.3, -4

(continued)
Below each SMILES – Six1-Eya2 inh, D2 ag, PINK1 modulator, TRPML1 blocker, TRPML1 agonist, CtBP-E1A blk
> O=C(NCCc1csc2nc(-c3ccc(F)cc3)nn12)c1ccco1
 : x, x, 0.0%, -3, 1.0, x
> Cc1cc2ccccc2nc1SCC(=O)NC1CCCC1
 : 11, -0.8, 1.3%, 28, 0.5, 2
> COc1ccc(NS(=O)(=O)c2ccc(C(=O)NCC3(N4CCOCC4)CCCCC3)cc2)cc1
 : 3, 0.9, 1.5%, -6, 6.5, 4
> C/C(=N\NC(=O)CN1CCN(S(=O)(=O)c2ccc(C)cc2)CC1)c1ccc(O)cc1
 : 2, -1.6, -0.9%, -14, 0.8, -2
> CC1CCN(C(=O)COC(=O)COc2ccccc2C#N)CC1
 : 8, 3.7, -0.1%, -17, 3.7, 1
> COc1cc(NC(=O)C2CC(=O)N(Cc3ccco3)C2)c(OC)cc1Cl (stereo not given)
 : -15, -1.9, 0.5%, 1, 1.2, -8
> N#CC1(Nc2ccc(Br)cc2)CCCC1
 : 8, 0.6, 5.0%, 19, -0.6, 4
> C=CCOc1ccc(CNCc2cccnc2)cc1
 : -5, -2.8, -0.1%, 21, 0.0, 2
> Cc1cnc(C(=O)OCC(=O)c2ccc(C3CCCCC3)cc2)cn1
 : -1, 0.2, 2.4%, 0, 1.9, -22
> Cc1ccc(CNC(=S)Nc2ccc3c(c2)c(=O)n(C)n3Cc2cccc(C(F)(F)F)c2)cc1
 : -16, 14, 1.0%, x, -0.1, -9
> C/C(=N\NC(=O)CNC(=O)C(c1ccccc1)c1ccccc1)c1ccc(C(C)(C)C)cc1
 : 0, 0.4, -1.6%, -5, 1.6, 0

CtBP-E1A blk: entries above that show a hit
compound,Six1-Eya2 inh,D2 ag,TRPML1 blocker,CtBP-E1A blk
O=C(Nc1nc(-c2ccccn2)cs1)c1ccc(-c2ccccc2F)o1,u,9.3,0,-70*
